Screens from PubChem BioAssay.
RE007 growth inh – qHTS Assay for Inhibitors of the HIV-1 protein Vpr; hit rate 0.21% among 360,000; AID 651644, 2012; Potency, µM (titrated, usually from 92.2 µM), for inactives: at the highest dose activity change, negative = less growth; S. pombe RE007 Vpr strain, BacTiter-Glo ATP luminescence, 24 h; control for the full effect not named in the record; active = well fitted falling curve with a large enough effect; inconclusive = small, poorly fitted or top-dose-only effect; inactive = no such curve, though single readings can be large or run the other way;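 also: nearly all actives have a fitted effect of over 50% in size; the assay follows cell death caused by Vpr and the record does not say whether a fall means rescue or toxicity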
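Fission yeast strain RE007, carrying one chromosomally integrated HIV-1 vpr copy, was seeded at OD 0.01 in PMG+AL medium with 23 nL pinned compound. After 24 h at 30 °C and 99% humidity, viability was read by BacTiter-Glo luminescence.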
StopGo reporter – High Throughput Screening for Foot and Mouth Disease Virus Antivirals. Potency, µM (series often up to 57.9 µM), without a hit: at the highest dose signal change, negative = less light. human cells with a luciferase reporter of 2A StopGo recoding; control for the full effect not named in the record. hit rate 1.2% among 410,000; active = well fitted falling curve with a large enough effect; inconclusive = small, poorly fitted or top-dose-only effect; inactive = no such curve, though single readings can be large or run the other way; tested in HEK293T cells; also: nearly all actives have a fitted effect of over 45% in size; luciferase light after 4 h
An asterisk follows results filed as active; ? = inconclusive; [ ] = remark or other dose. % is scaled to controls: 0 for no effect and ±100 for the full control effect; potency is read from the fitted curve at half-maximal effect. These rows are one share of the data (hit frequency here may not be typical).

Order of values: RE007 growth inh, StopGo reporter
1. COc1ccc(C2CC(=O)c3c(O)cc(O)cc3O2)c(CC=C(C)C)c1OC (stereo not drawn)
    ?, 0%
2. COc1ccccc1NC(=O)c1oc2ccccc2c1C
    -12%, 55%[activator]
3. CN(C)CCCOc1ccc(-c2ccc3nncn3c2)cn1
    -4%[18.4 µM], -13%
4. Cc1ccc(CNC(=O)CN2NS(=O)(=O)c3ccccc3C2=O)cc1
    -11%, 6%
5. CC(C)C[C@@H](CN1CCC[C@@H]1CN1C(=S)NC[C@@H]1Cc1ccccc1)N1C[C@H](Cc2ccc(O)cc2)N(CCc2ccccc2)C1=S
    -8%, -5%
6. COc1ccc(C(C)(O)c2nc(-c3cccc(C(C)C)c3)cs2)cc1 (stereo not drawn)
    19%[18.4 µM], -19%
7. COc1cc(NC(=O)C2(C)CCN2C(=O)C(C)C)cc(OC)c1OC (stereo not drawn)
    15%, -13%
8. NC(=O)C1=C[C@@H](c2ccccc2)C[C@@H](OCCCCO)O1
    -1%, ?
9. O=C(NCc1ccccc1Cl)[C@H]1CCCN1C(=O)[C@H]1CCCN1C(=O)c1cccc2ccccc12
    6%, -3%
10. CCCCNC(=O)C(NC(=O)c1cccnc1OC)C(=O)c1ccccc1 (stereo not drawn)
    6%, 6%
11. COc1cccc(CNC(=O)COC(=O)c2ccc(-c3ccc(O)cc3)cc2)c1
    5%, -21%
12. COCCNC(=S)N(CCCO)Cc1cc2cc3c(cc2[nH]c1=O)OCO3
    -8%, -23%
13. CCOC(=O)C1Nc2c(cc(C(F)(F)F)cc2[N+](=O)[O-])C2c3ccccc3CC12 (stereo not drawn)
    1%, 0%
14. CCCCC[C@@H](C)N1C[C@H](COCc2ccccc2)Oc2cc(N3CC[C@@H](N(C)C)C3)ccc2S1(=O)=O
    -13%, -1%
15. CCOC(=O)c1cccc(NC(=O)c2ccc(F)cc2F)c1
    1%, 56%[activator]
16. O=[N+]([O-])c1cccnc1Nc1ccc(Cl)cc1
    3%, 22%
17. CCC(C)n1c(SCC(=O)N(CC)c2c(N)n(Cc3ccccc3)c(=O)[nH]c2=O)nc2ccccc2c1=O (stereo not drawn)
    -1%, -22%
18. O=C(NCc1cc(Cl)cc(Cl)c1)c1ccc2nc([C@H]3C[C@H](O)[C@@H](CO)O3)[nH]c2c1
    3%, -17%
19. CC(C)(C)c1ccc(CC(=O)N2CCC2(C)C(=O)NS(=O)(=O)c2cccs2)cc1 (stereo not drawn)
    -7%, -14%
20. O=C(Nc1cccc(C(=O)O)c1)/C(=C\c1ccccc1)NC(=O)c1ccco1
    4%, -20%
21. COc1ccc(-c2ccc(C(=O)NCCN(C)C)c3occc23)c(C)c1
    -13%[18.4 µM], -11%
22. C[C@@H]1CN([C@H](C)CO)C(=O)CCCn2nncc2CO[C@H]1CN(C)C(=O)Nc1ccc2c(c1)OCO2
    -13%, -16%
23. Cc1c(C(=O)NCc2ccc3c(c2)OCCO3)sc(=O)n1Cc1ccccc1F
    -7%[18.4 µM], -16%
24. CN(C)CCN(Cc1ccccc1)C(c1ccnc2ccccc12)c1nnnn1-c1ccc2c(c1)OCCO2 (stereo not drawn)
    -8%, -4%
25. COc1ccc(NC(=O)C2(C)Cc3c(-c4cccc(C(F)(F)F)c4)ccnc3O2)cn1 (stereo not drawn)
    44%, -21%
26. C#CCOc1ccc(/C=C2/C(=O)N(c3ccc(S(N)(=O)=O)cc3)N=C2C)cc1OC
    -4%, ?
27. CC#CCOCC1CNC(=O)O1 (stereo not drawn)
    -2%, -10%
28. COc1ccc(-n2nnnc2C2c3ccccc3C(=O)N2C2CCN(Cc3ccccc3)CC2)cc1 (stereo not drawn)
    -27%, -14%
29. COC(=O)[C@@]12C[C@@H](CC(=O)N3CCSCC3)C(=O)N(Cc3ccc4c(c3)OCO4)C1=CCC(C)(C)C2
    0%, -4%
30. CO[C@H]1CN(C)C(=O)c2ccc(NC(=O)NC(C)C)cc2OC[C@H](C)NC[C@H]1C
    6%, 0%
31. CCc1ccc([C@H]2[C@@H]3C(=O)C[C@@H]4C(=O)NC(=O)[C@@H]4[C@@H]3CN2S(=O)(=O)c2ccc(C)cc2)cc1
    3%, -9%
32. Cc1c(C(=O)NCc2ccc3c(c2)OCO3)sc(=O)n1Cc1cccc(F)c1
    -11%[18.4 µM], -14%
33. O=C(Nc1nnc([C@@H]2C[C@H](O)[C@@H](CO)O2)s1)Nc1cccc(Cl)c1Cl
    36%, 33%[activator]
34. CC(C)NC(=O)Nc1ccc2c(c1)C(=O)N([C@@H](C)CO)C[C@@H](C)[C@H](CN(C)Cc1ccccc1)OCCCC[C@H](C)O2
    -10%, -23%
35. CCOC(=O)C(C)Oc1cccc2c(=O)n(CC(=O)Nc3ccc(OC)cc3)ccc12 (stereo not drawn)
    -6%, -7%
36. C[C@@H]1CN([C@H](C)CO)C(=O)CCCn2cc(nn2)CO[C@H]1CN(C)C(=O)Nc1ccc(F)cc1
    5%, -2%
37. CC(C)Cn1c(SCC(=O)NC2CC2)nc2ccc(Cl)cc2c1=O
    3%, 4%
38. COc1cc(-c2cnc3c(NC=O)cc(-c4ccsc4)cn23)cc(OC)c1OC
    3%[18.4 µM], ?
39. CCOC(=O)C(CC1=CS(=O)(=O)c2ccc(Cl)cc21)(NC(C)=O)C(=O)OCC
    3%, -5%
40. FC(F)(F)c1ccccc1Cc1c(-c2cccc(Br)c2)nc2ccc(Br)cn12
    2%, 4%

Ordered by molecular weight (largest number first): some entries from above
Order of values: RE007 growth inh, StopGo reporter
36. C[C@@H]1CN([C@H](C)CO)C(=O)CCCn2cc(nn2)CO[C@H]1CN(C)C(=O)Nc1ccc(F)cc1
    5%, -2%
11. COc1cccc(CNC(=O)COC(=O)c2ccc(-c3ccc(O)cc3)cc2)c1
    5%, -21%
16. O=[N+]([O-])c1cccnc1Nc1ccc(Cl)cc1
    3%, 22%

Further compounds follow:
Order of values: RE007 growth inh, StopGo reporter
41. Cn1c(NCCc2ccncc2)nc2cc(-c3cccc(Cl)c3)sc2c1=O
    -10%, 15%
42. COc1ccc(C2=NOC(C3(S(=O)(=O)c4ccccc4)CC(O)C3)C2)cc1 (stereo not drawn)
    -6%, 52%[activator]
43. Cc1cc(NC(=O)c2ccc3sc([C@@H]4O[C@H](CO)[C@H](O)[C@H](O)[C@H]4O)nc3c2)no1
    -2%[18.4 µM], 3%
44. Cc1cc(O)cc(=O)n1Cc1ccccc1
    -2%, -18%
45. COC(=O)c1c(C)[nH]c(C(=O)COC(=O)CCc2ccc(OC)c(OC)c2)c1C
    4%, -21%
46. COc1ccc(C(CNC(=O)CNC(=O)c2cccc(F)c2)N2CCOCC2)cc1 (stereo not drawn)
    -6%, -10%
47. CC(=O)Nc1cncc(-c2cnn(CC(C)C)c2)n1
    13%, 26%
48. CCOC(=O)C1(C(=O)OCC)C(C)CC(=O)N1c1ccccc1OC (stereo not drawn)
    5%, -23%
49. CCOC(=O)[C@]12CCCC=C1N(Cc1ccc(Cl)cc1Cl)C(=O)[C@H](CC(=O)N1CCCCC1)C2
    -15%, -1%
50. Cn1c(=O)c2c(-c3ccccc3)n(-c3ccccc3Br)cc2n(C)c1=O
    -3%, ?
51. CCCCN(C(=O)CC1CCCCC1)c1c(N)n(CCCC)c(=O)[nH]c1=O
    -9%, -10%
52. COC(=O)C1=C(c2cccc(OC)c2OC)C[C@@H]2CC[C@H]1N2C(=O)N1CCC(O)CC1
    -9%, -1%
53. Cc1nc2ccc(C(=O)N3CCN(C(=O)c4ccco4)CC3)cn2c1N(C)C(=O)CCc1ccccc1
    6%[18.4 µM], -7%
54. CC(C)COC(=O)N1CCCC(c2cc(C(=O)Nc3ccccc3Cl)no2)C1 (stereo not drawn)
    -10%, 0%
55. CC(C)(C)S(=O)N1Cc2cc(CO)cc(-c3ccccc3)c2[C@H]1CCO (stereo partly drawn)
    -8%, 0%
56. O=c1cnc2ccccc2n1Cc1ccccc1
    21%, 2%
57. O=S1(=O)CC(N2CCCC2)CN1C1CCCCC1 (stereo not drawn)
    4%, -11%
58. C(#CCN1CCCCC1)CN1CCCCC1
    10%, -15%
59. CC1(C(=O)NS(=O)(=O)c2ccc(C#N)cc2)CCN1C(=O)c1cccc2ccccc12 (stereo not drawn)
    -5%[18.4 µM], -10%
60. CC(C)C(C(=O)NC1CCCC1)N1CCC(O)(c2ccc(Cl)cc2)CC1 (stereo not drawn)
    -5%, -6%
61. COc1ccc(-c2ccc(C(=O)NCc3ccc(N(C)C)cc3)c3occc23)c(C)c1
    -3%, 3%
62. COc1cc(CN2C[C@@H](CO)O[C@@H](n3cnc4c(NCCCO)ncnc43)C2)cc(OC)c1OC
    10%, -6%
63. CSCCC(C(=O)NC1CCCC1)n1c(C2CCCC2)nc2ccccc21 (stereo not drawn)
    -20%, -22%
64. O=c1cc(CN2CCCCC2)c2c(ccc3ccccc32)o1
    -22%, 9%
65. C=CCN1CCCC1CNC(=O)c1cc2[nH]nnc2cc1OC (stereo not drawn)
    8%[18.4 µM], -9%
66. CC1(C(=O)Nc2cccc3cccnc23)CCN1Cc1ccc(-c2ccccc2)o1 (stereo not drawn)
    2%, -3%
67. Cc1cccc(OCC(=O)OCC(=O)N2CCN(C(=O)c3ccco3)CC2)c1C
    6%, -16%
68. Cn1ncc2cc3c(Nc4ccc(Cl)cc4)cccc3nc21
    ?, -16%
69. COc1ncnc2c1ncn2CCCN1CCN(Cc2cccc3ccccc23)CC1
    -25%, -25%
70. Cc1cc2nc[nH]c(=O)n2n1
    -1%, -15%
71. OCCCCCCNc1ccc(CCO)cc1
    -29%, 26%
72. CCCCNC(=O)C1c2ccccc2OCC(=O)N1C1CC1 (stereo not drawn)
    12%, -23%
73. O=C(Nc1ccccc1)c1c(O)[nH]c(=S)[nH]c1=O
    -9%, 24%
74. CC(=O)Nc1ccc(CNc2nc3cc(-c4cccc(C(F)(F)F)c4)sc3c(=O)n2C)cc1
    30%, ?
75. Cc1cccnc1C(c1ccc(F)cc1)N(C)C(=O)C1CCN(CCCOc2ccc(F)cc2)CC1 (stereo not drawn)
    -21%, 6%
76. CCCC(=O)N1CCC1(C)C(=O)Nc1ccc(OC(F)F)cc1 (stereo not drawn)
    13%, 0%
77. O=C(NCc1ccccc1)C1C(=O)Nc2ccccc2C(=O)N1C1CCCC1 (stereo not drawn)
    5%, 0%
78. CCc1nc2ccc(C(=O)NCCCn3ccnc3)cn2c1N(CC)CCN(C)C
    -24%, 0%
79. COC(=O)C1=C(c2cc3ccccc3s2)C[C@@H]2CC[C@H]1N2C(=O)NCCCOC(C)C
    14%, 8%
80. Cc1cccc(NC(=O)CN2C(=O)C3CC=CCC3C2=O)c1C (stereo not drawn)
    1%, -12%

Single entries from above:
no. 17 @ StopGo reporter = -22%
no. 68 @ StopGo reporter = -16%

In a second layout: results already given.
No. | smiles | RE007 growth inh | StopGo reporter
62 | COc1cc(CN2C[C@@H](CO)O[C@@H](n3cnc4c(NCCCO)ncnc43)C2)cc(OC)c1OC | 10% | -6%
71 | OCCCCCCNc1ccc(CCO)cc1 | -29% | 26%
66 | CC1(C(=O)Nc2cccc3cccnc23)CCN1Cc1ccc(-c2ccccc2)o1 (stereo not drawn) | 2% | -3%
72 | CCCCNC(=O)C1c2ccccc2OCC(=O)N1C1CC1 (stereo not drawn) | 12% | -23%
68 | Cn1ncc2cc3c(Nc4ccc(Cl)cc4)cccc3nc21 | ? | -16%

(next part)
Order of values: RE007 growth inh, StopGo reporter
81. Cc1nn(-c2ncccn2)c2c1C(=O)CC(C)(C)C2Br (stereo not drawn)
    6%, 8%
82. O=S(=O)(c1cc(Cl)cc(Cl)c1)N1Cc2cc(N3CCOCC3)ccc2-n2nncc2C1
    6%, -14%
83. CC1=C(C(=O)N(C)C)CC(CC(=O)NCCN2CCOCC2)C(=O)N1CCCN1CCCC1=O (stereo not drawn)
    9%, -23%
84. NS(=O)(=O)c1cccc(C(=O)N2CCCc3ccccc32)c1
    -7%, 0%
85. O=C(NCCc1cccs1)Nc1nnc([C@H]2C[C@H](O)[C@@H](CO)O2)s1
    10%, -10%
86. CC(CCc1ccccc1)NC(=O)CCC1CCCC1 (stereo not drawn)
    12%, -17%
87. COC(=O)c1ccc2c(c1)S(=O)(=O)NC2C (stereo not drawn)
    4%, -1%
88. O=C(NCc1ccccc1)C1Cc2c(-c3cccc(F)c3)ccnc2O1 (stereo not drawn)
    -2%[18.4 µM], -6%
89. OCCN1CCN(c2ncnc3c2ncn3[C@H]2CN(Cc3ccc4c(c3)OCO4)C[C@@H](CO)O2)CC1
    -1%, -16%
90. O=C1c2ccccc2C(=O)N1CCC1(O)C(c2ccccc2)=Nc2ccccc21 (stereo not drawn)
    2%, 33%[activator]
91. CC1(C(=O)NCc2ccccc2)CSCC(=O)N1Cc1cccc(F)c1 (stereo not drawn)
    -9%, -8%
92. Cc1ccccc1S(=O)(=O)NC(=O)C1(C)CCN1C(=O)c1ccccc1CCc1ccccc1 (stereo not drawn)
    8%[18.4 µM], -1%
93. O=C(NC1CC1)c1ccc(NC(=O)C2CCCCC2)cc1
    7%, 3%
94. NC(Cc1ccc(C(F)(F)F)cc1)c1csc(NC(=O)Nc2ccccc2Cc2ccccc2)n1 (stereo not drawn)
    35%, -22%
95. COC(=O)C[C@H]1C=C[C@@H](NC(=O)Nc2cccc(OC)c2)[C@@H](CO)O1
    4%, -13%
96. CCCn1c(SCC(=O)N(C)C2CCCCC2)n[nH]c1=O
    -7%, 4%
97. COc1ccc(-c2nc3c4ccccc4ccn3c2Cc2ccc(C)cc2)cc1OC
    -14%, 1%
98. O=C(CN1C(=O)c2ccccc2C1=O)NC1CCS(=O)(=O)C1 (stereo not drawn)
    0%, 9%
